Compound activity as filed in PubChem BioAssay.
CtBP-E1A blk – qHTS Assay for Inhibitors of the CtBP/E1A Interaction; AID 651724, 2012; activity change, % (concentration not given with the values); CtBP / adenovirus E1A interaction (AlphaScreen); hit rate 0.49% among 340,000; AlphaScreen GST-E1A/His-CtBP binding, 1536-well; active compounds read low; control for the full effect not named in the record; in the data active means activity change below about -65%; inconclusive means about -30% to -65%; inactive means above about -30%; note: % is set by controls: 0 for no effect and ±100 for the full control effect
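Steps: dispense buffer (Tris pH 8.0, NaCl 300 mM, TCEP 1 mM, BSA, Tween 20); add 5X protein mix (GST-E1A, His-CtBP, 125 nM each); pin 23 nL compound; 2 h at 37 °C, dark; add 5X beads (50 ug/mL); 1 h; read.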
D2 potentiator – Beta-Arrestin HTS for Positive Allosteric Modulators of the Human D2 Dopamine Receptor: Potentiators. D(2) dopamine receptor (Homo sapiens), P14416. DiscoveRx D2 beta-arrestin cells, luminescence, 90 min; 100% = 57 uM dopamine signal. potentiation, % (concentration not given with the values). hit rate 0.23% among 360,000. AID 624464, 2012; active = potentiation of 50% or more; inconclusive = 30% to 50%; inactive = 30% or less;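 note: compound concentration not given in the record; tested on top of an EC20 dose of dopamine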
Target sequence (P14416 whole entry, looked up): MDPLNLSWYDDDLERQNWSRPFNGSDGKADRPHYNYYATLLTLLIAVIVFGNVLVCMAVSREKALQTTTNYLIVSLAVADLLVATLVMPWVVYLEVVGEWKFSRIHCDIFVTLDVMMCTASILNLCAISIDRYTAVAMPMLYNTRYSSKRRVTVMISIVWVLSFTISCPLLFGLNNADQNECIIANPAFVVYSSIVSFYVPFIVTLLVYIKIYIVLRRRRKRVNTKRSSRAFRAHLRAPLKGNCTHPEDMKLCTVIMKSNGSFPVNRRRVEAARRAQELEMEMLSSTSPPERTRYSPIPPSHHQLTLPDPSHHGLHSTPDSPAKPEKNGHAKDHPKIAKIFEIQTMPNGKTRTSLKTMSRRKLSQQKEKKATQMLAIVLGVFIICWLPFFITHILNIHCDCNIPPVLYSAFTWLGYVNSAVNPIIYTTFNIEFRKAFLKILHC
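PathHunter D2 cells, attached overnight at 37 deg C, received compound in DMSO plus dopamine at EC20 (50 nM final) for 90 min at 37 deg C. Beta-arrestin recruitment was read as luminescence after 1 h with detection reagent at ambient temperature.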
Six1-Eya2 inh – qHTS Assay for Inhibitors of the Six1/Eya2 Interaction; AID 651725, 2012; activity change, % (concentration not given with the values); AlphaScreen GST-Six1/His-Eya2 binding, biochemical; active compounds read low; control for the full effect not named in the record; hit rate 0.56% among 360,000; Homeobox protein SIX1 (Homo sapiens) + Protein phosphatase EYA2 (Homo sapiens), …; in the data active = activity change below about -65%; inconclusive = about -30% to -65%; inactive = above about -30%; note: % is set by controls: 0 for no effect and ±100 for the full control effect
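GST-Six1 + His-Eya2 (5X stock: 250/500 nM); Tris pH 8.0, 300 mM NaCl, 0.05% BSA, 0.02% Tween 20; GSH donor/Ni acceptor beads; 1 h 37 °C dark; AlphaScreen readout.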
TRPML1 agonist – qHTS for Agonists of the Human Mucolipin Transient Receptor Potential 1 (TRPML1) | Mucolipin-1 (Homo sapiens), Q9GZU1 | TRPML1-expressing cells, Ca2+ dye fluorescence, FDSS; host cell line not named in the record; reference of the full effect not given here | activation, % (concentration not given with the values) | hit rate 0.12% among 410,000; in the data active = activation above about 50%; inconclusive = about 30% to 50%; inactive = below about 30%; note: 0% is about no effect; the text of the record puts the active cut at 80%
Target sequence (Q9GZU1 whole entry, looked up): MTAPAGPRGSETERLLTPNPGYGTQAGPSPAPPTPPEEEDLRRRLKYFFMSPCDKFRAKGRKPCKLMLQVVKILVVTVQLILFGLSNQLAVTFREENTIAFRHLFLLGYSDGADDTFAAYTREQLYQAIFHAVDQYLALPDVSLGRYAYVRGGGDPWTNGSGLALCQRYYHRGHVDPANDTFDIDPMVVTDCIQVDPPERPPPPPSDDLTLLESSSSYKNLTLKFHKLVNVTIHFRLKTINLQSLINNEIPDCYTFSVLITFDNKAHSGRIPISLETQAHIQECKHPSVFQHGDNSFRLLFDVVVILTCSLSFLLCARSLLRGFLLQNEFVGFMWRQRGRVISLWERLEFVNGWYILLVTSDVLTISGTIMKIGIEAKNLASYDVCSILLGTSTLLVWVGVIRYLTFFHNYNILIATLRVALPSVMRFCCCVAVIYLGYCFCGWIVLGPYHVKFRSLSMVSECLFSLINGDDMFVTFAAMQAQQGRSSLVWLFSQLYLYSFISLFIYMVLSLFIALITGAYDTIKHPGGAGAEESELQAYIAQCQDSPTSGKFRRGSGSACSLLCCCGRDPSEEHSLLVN
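Calcium fluorescence on an FDSS kinetic reader gave the read-out. Tet-induced TRPML1-DL cells were plated overnight, dye-loaded (Ca8 with quencher, 45-90 min, room temperature, dark), then read 110 s after compound addition, and again 110 s after 4uM final 54-4 (EC80).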
TRPML1 blocker – qHTS for Inhibitors of the Human Mucolipin Transient Receptor Potential 1 (TRPML1); Mucolipin-1 (Homo sapiens), Q9GZU1; TRPML1-inducible cells, Ca2+ dye fluorescence, FDSS; active compounds read low; inhibition of EC80 agonist-evoked calcium signal; activity change, negative = inhibition, % (test concentration not listed); hit rate 0.02% among 390,000; in the data active means activity change below about -50%; inconclusive means about -30% to -50%; inactive means above about -30%;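 note: stimulus is agonist 54-4 at its EC80 concentration; % is set by controls: 0 for no effect and ±100 for the full control effect; compound concentration not given in the record; the text of the record puts the active cut at -80%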
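TRPML1-DL cells, Tet-induced overnight (~16 h, 37 °C) at 1,500 cells/well, were loaded with Ca8 no-wash dye plus quencher for 45-90 min at room temperature. Compounds were pinned during FDSS kinetic reading; agonist 54-4 at EC80 (4 uM final) then added.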
TRPV1 PAM – HTS Assay for Compounds that Act as Potentiators of the Vanilloid Receptor 1 | TRPV1-expressing cells, Fluo-8 calcium influx, capsaicin EC20 potentiation; host cell line not named in the record; control for the full effect not named in the record | potentiation, % at 8.33 µM | hit rate 0.02% among 320,000 | AID 540277, 2011; active means potentiation above 80%; inconclusive means 30% to 80%; inactive means below 30%; note: 0% is about no effect
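Fluo-8 calcium influx in TRPV1-expressing cells, kinetic read (ex 480/em 520 nm). Compound added and read 3 min for agonist activity, followed by capsaicin at EC20 final and 2 min further read for enhancement.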
* hit, by the source's call; ? = inconclusive; . = no result given; & = joins results of further samples.

Molecule	CtBP-E1A blk	D2 potentiator	Six1-Eya2 inh	TRPML1 agonist	TRPML1 blocker	TRPV1 PAM
COc1ccccc1C(CC(=O)Nc1nccs1)c1ccco1 (stereo not given)	0	-8	-1	-0.8	-4	16
Cn1c2ccccc2c2cnn(CC(=O)O)c(=O)c21	-1	-9	6	1.8	-2	8
Cc1cc(C)nc(/N=C2/NC(=O)CS2)n1	6	-9	0	0.2	-12	-3
COc1cc(CNc2ccc3c(c2)CCC3)cc(OC)c1O	-5	-7	-6	0.5	10	23
O=C(NCc1cccnc1)c1cccc(F)c1	5	0	-3	-0.6	-10	4
CCC1=NN(C(=O)Cc2ccc(OC)cc2)C(O)(C(F)(F)F)C1 (stereo not given)	17	-7	6	-0.8	7	?
COc1ccc(/C=N/OCC(=O)Nc2cc(C)on2)cc1OC	-4	13	3	-0.9	-25	-11
CCCn1ncc(CN2CCC(C(=O)Nc3cccc(-c4cccc(F)c4)c3)CC2)c1C	-4	-25	-3	4.5	17	-6
CCCCc1oc2c(c(=O)c1C)C(=O)CC(c1ccccc1)C2 (stereo not given)	-13	4	-10	-0.2	-9	18
COc1ccc(/C=N/NC(=O)c2nc(-c3ccccc3)n(-c3ccccc3)n2)c(O)c1	?	-5	?	2.6	-8	21
Cc1ccc(NC(=O)COC(=O)CC2CCCC2)cc1F	14	-3	7	0.6	1	.
CCCCc1cc(=O)oc2c(CN3CCCC3)c(O)ccc12	-1	-5	1	-0.1	-2	-9

More entries follow:
Molecule	CtBP-E1A blk	D2 potentiator	Six1-Eya2 inh	TRPML1 agonist	TRPML1 blocker	TRPV1 PAM
Fc1cccc(Cc2c(-c3ccco3)nc3c(Cl)cc(C(F)(F)F)cn23)c1	?	-14	-18	-0.2	.	.
COc1ccc(N2C(=O)CC(N3CCC(C(N)=O)CC3)C2=O)cc1 (stereo not given)	2	-7	8	0.5	0	4
Brc1cc2c(cc1C1OCCCO1)OCO2	-10	-16	3	0.1	-15	.
COc1ccc(N(C(=O)c2snc(C(N)=O)c2N)C(C(=O)NCc2ccccc2)c2ccc(O)cc2)cc1 (stereo not given)	4	1	-1	0.8	9	4
CNC(=O)Nc1cccc(C(F)(F)F)c1	6	-15	8	-1.0	15	?
COc1ccc(C2=NN(C(=O)CSc3nnc(-c4ccccc4F)o3)C(c3ccco3)C2)cc1 (stereo not given)	5	-26	3	-0.4	-7	-3
COc1ccc(/C=N\NS(=O)(=O)c2ccc(Cl)cc2)cc1COc1ccccc1[N+](=O)[O-]	-1	-19	2	2.2	0	9
O=C(CN1C(=O)NC2(CCCC2)C1=O)OCc1c(F)cccc1Cl	9	0	2	-0.1	1	-11
O=C(CCCOc1ccccc1)Nc1cccc(C(=O)O)c1	1	5	5	-0.7	7	10
CC1(C(=O)Nc2cccc(C#N)c2)CCN1C(=O)Cc1ccc(-c2ccccc2)cc1 (stereo not given)	-1	-6	-5	0.6	16	.
COc1cccc(-c2nn(-c3ccc(C)cc3)cc2C(=O)N2CCc3cc(OC)c(OC)cc3C2)c1	-1	-28	-28	1.0	10	4
CN1CCc2c(c3ccccc3n2Cc2ccccc2)C1	-20&4	-28&-14	-1&-13	1.1&0.1	14&30	.

Remaining list, next part.
Molecule	CtBP-E1A blk	D2 potentiator	Six1-Eya2 inh	TRPML1 agonist	TRPML1 blocker	TRPV1 PAM
CC(C)CN(C(=O)COC(=O)c1cccc2ccccc12)c1c(N)n(Cc2ccccc2)c(=O)[nH]c1=O	-1	-17	-2	0.6	6	22
CN1C(=O)C(O)(CC(=O)/C=C/c2ccco2)c2ccccc21 (stereo not given)	8	-4	6	0.1	-8	6
COc1ccc2c3c([nH]c2c1)C1CC2C(CC(O)C(OC)C2C(=O)O)CN1CC3 (stereo not given)	-15	-26	-1	.	.	-15
CC(=O)c1c(C)oc2ccc(N(C(=O)C3CCCCC3)S(=O)(=O)c3cc([N+](=O)[O-])ccc3C)cc12	1	-10	3	-0.5	16	6
COc1cccc(NC(=S)N2CCC(Cc3ccccc3)CC2)c1	-2	-8	-13	1.0	19	7
CCOc1c(Br)cc(C2NS(=O)(=O)N=C3CCCCCN32)cc1OC (stereo not given)	1	-19	4	3.7	15	-13
O=c1cc(C2CCCCC2)[nH]c(=O)[nH]1	-3	-3	7	0.8	-8	.
CC1=NN(C(=O)COc2ccccc2C)C(O)(c2ccc(Cl)cc2)C1 (stereo not given)	3	14	-3	1.2	9	-9
O=C(CSc1nc2ccccc2[nH]1)c1c[nH]c2ccccc12	-25	-8	-7	0.9	1	9
Cc1cc(NC(=O)CSc2nc3cc(Cl)ccc3c(=O)n2Cc2ccco2)no1	8	-2	17	0.5	-6	1
COc1ccc(CCNC(=O)C(=O)NCC2CCCN2S(=O)(=O)c2ccc(OC)cc2)cc1 (stereo not given)	0	17	4	1.1	15	-2
CC(=O)Nc1ccc(NC(=S)NC(=O)/C=C/c2ccco2)cc1	0	-7	-15	0.3	3	10

The list goes on.
Molecule	CtBP-E1A blk	D2 potentiator	Six1-Eya2 inh	TRPML1 agonist	TRPML1 blocker	TRPV1 PAM
COC(=O)c1sccc1NC(=O)Cc1ccc(OC)c(OC)c1	-1	-15	1	3.7	23	-6
O=C(NCc1ccc2c(c1)OCO2)Nc1ccc(Cl)cc1	-7	-42	-7	-0.9	37	-11
Nc1c(N(CCO)C(=O)C2CCCCC2)c(=O)[nH]c(=O)n1Cc1ccccc1	6	-1	5	0.2	4	-18
O=C1NCCN(C(=O)CCc2nnc(-c3ccsc3)o2)C1c1ccc(F)cc1 (stereo not given)	.	-9	31	-0.1	-10	1
CC(=O)C1=C(O)C(=O)N(c2cccc(C(=O)O)c2)C1c1ccc(F)cc1 (stereo not given)	0	-6	12	-0.2	0	4
Cc1nn(CC(=O)NCc2ccccn2)c(C)c1[N+](=O)[O-]	8	-8	5	0.2	16	1
Cc1cccc(N(C(=O)CCC(=O)Nc2cc(C)on2)C(C(=O)NC2CCCC2)c2ccccc2)c1 (stereo not given)	23	0	8	-1.1	-5	0
CCOc1ccc(NC(=O)Cc2ccc(S(=O)(=O)N3CCOCC3)s2)cc1OCC	?	-31	-19	2.2	19	-9
CCn1cc(NC(=O)Nc2ccc(OC)c(OC)c2)c(C(N)=O)n1	-8	10	-4	-0.8	-6	0
COC(=O)c1c(NC(=O)CC2SC(N)=NC2=O)sc2c1CCC(C(C)(C)C)C2 (stereo not given)	-8	4	-4	-0.8	-14	-11
Cc1cc(C)n(CCCNC(=O)c2cc(COc3ccc(C)c(C)c3)on2)n1	11	14	-2	-1.1	6	-9
CC(C)N1CCN(Cc2ccc(C#CC(C)(C)O)cc2)CC1CCO (stereo not given)	.	-11	3	-0.1	0	-2

(list continues)
Molecule	CtBP-E1A blk	D2 potentiator	Six1-Eya2 inh	TRPML1 agonist	TRPML1 blocker	TRPV1 PAM
Cc1c(C(=O)OCC(=O)N(C)Cc2ccc(Cl)cc2)oc2ccccc12	-10	-4	5	2.0	2	-7
C/C(=N\Nc1ccc(F)cc1)c1ccncc1	3	-5	6	-0.3	-18	10
CC(C)C(=O)NNC(=O)c1csc(-c2cccs2)n1	0	0	5	-1.2	6	?
CC(c1ccccc1)N1C(=O)OC(C)(C)C1(C)O (stereo not given)	7	0	-5	1.3	4	-1
CCCN(CCC)CCCNC(=S)Nc1ccc2nc(N3CCCC3)cc(C)c2c1	.	-17	-8	-0.1	17	-28
Cc1cc(Cn2ccnc2)c(C)c([N+](=O)[O-])c1Cn1ccnc1	.	-4	6	0.4	25	-24
O=C(c1ccc(F)cc1)N1CCC(C(=O)N2CCN(S(=O)(=O)c3ccccc3Br)CC2)CC1	-2	0	2	-0.2	17	-16
Cc1noc(C)c1S(=O)(=O)Nc1ccc(C(=O)NCCc2ccccc2)cc1	3	-11	17	-0.6	-12	3
O=C(Cn1cnc2c(nnn2Cc2ccccc2F)c1=O)N1CCN(c2ccccc2)CC1	-3	-3	1	0.5	-10	5
Cc1cccc(S(=O)(=O)NNC(=O)Cc2cccn2C)c1	-12	-8	-16	-0.5	-4	6
COc1cc2c(C)nc3onc(-c4ccccc4)c3c2cc1OC	-11	-6	-18	-1.0	5	.
Cc1cc(-c2nnc(SCC(=O)Nc3ccc(F)cc3)n2N)n[nH]1	3	-2	0	-0.8	9	3

(list continues)
Molecule	CtBP-E1A blk	D2 potentiator	Six1-Eya2 inh	TRPML1 agonist	TRPML1 blocker	TRPV1 PAM
O=C(CN1C(=O)NC2(CCCC2)C1=O)NCCc1ccc(F)cc1	0	-15	-1	-0.2	-5	.
CC1=C(C(=O)OCCOC(C)C)C(c2cccnc2)C2=C(CCCC2=O)N1 (stereo not given)	-2	1	5	-0.5	16	-3
COc1cc(OC)nc(Oc2ccccc2C(=O)Oc2ccc(F)cc2Cl)n1	2	-22	13	2.9	-5	-6
COc1ccc(N2CCN(C(CNC(=O)C(=O)NC3CC3)c3ccco3)CC2)cc1 (stereo not given)	5	-4	2	0.5	-3	-16
COc1ccc(C(=O)ON=C(C)c2nccs2)cc1	2	-5	8	-0.1	-8	.
NC(=O)CC(NC(=O)Cc1ccc(Br)cc1)c1ccc(N2CCC(N3CCCC3)CC2)c([N+](=O)[O-])c1 (stereo not given)	-9	-15	-7	0.2	-18	10
Cc1cc2cc3c(cc2nc1SCC(=O)Nc1nc(C)c(C)s1)OCO3	4	1	-2	0.0	-9	4
COC(=O)c1ccccc1S(=O)(=O)N1CCC(C(=O)OC(C)C(=O)Nc2ccc(NC(C)=O)cc2)CC1 (stereo not given)	6	-8	-1	0.0	-7	-3
O=C(CCCN1C(=O)/C(=C/c2ccccc2)SC1=S)Nc1ccccc1O	-24	0	-12	-0.3	-3	-8
CC(C)NC(=O)c1cc(-c2ccc(Br)cc2)on1	-4	-10	8	0.8	15	-4
Cc1ccc(NC(=S)N2CCC(N(C)CC3CCCO3)CC2)cc1C (stereo not given)	-12	-5	-20	0.1	14	16
Cc1cccc(C)c1N(C(=O)c1ccco1)C(C(=O)NC1CCCC1)c1ccncc1 (stereo not given)	-8	6	6	1.2	8	-8
CC(C)c1ccc(O)c(N)c1	-6	?	6	-0.7	4	25
CCn1c(SCC(=O)N(C)C)nc2cc(S(=O)(=O)N3CCCCC3)ccc21	20	-11	-12	0.0	14	-16
COCCNc1nc2c(c(=O)n(C)c(=O)n2C)n1Cc1cccc(C(F)(F)F)c1	0	2	-20	-1.7	25	-9
